# Anthrax LT inh – blocks cellular internalization of anthrax lethal toxin | Cells, anthrax lethal toxin internalization, FRET ratio (460/530) | Potency, µM (titrated, usually from 40 µM), inactives show top-dose activity change, negative = inhibition, most hits filed as inhibitors | 70,000 tested, 0.67% active | AID 912; active = well fitted falling ratio curve with the 530 nm signal flat; inconclusive = other ratio curves, or a change in one channel alone; inactive = flat curves in the ratio and both channels; the % refers to the ratio; also: % is scaled to controls: 0 for no effect and ±100 for the full control effect; nearly all actives have a fitted effect of over 50% in size; tested in ME-180 cells; beta-lactamase reporter
# Prx2 Sm inh – inhibitors of Schistosoma mansoni peroxiredoxin 2; S. mansoni Prx2 activity coupled to TGR/GSH (TGR is thioredoxin glutathione reductase), NADPH fluorescence loss, qHTS; some inactives read as strong as hits; Potency, µM; 65,000 tested, 0.07% active; AID 448; active means full or partial inhibition curve with a strong effect at the top dose; inconclusive means weaker partial or single-point curve; inactive means no accepted curve; also: series up to 57 µM; many of its hits are not listed in these tables
#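 Enzyme mix: 100 uM NADPH, 25 nM TGR, 700 uM GSH, 50 nM Prx2 in 100 mM phosphate pH 7.4, 10 mM EDTA, 0.01% Tween-20. 15 min RT with compound; NADPH/GSH added, H2O2 starts reaction; NADPH fluorescence read 8 min.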
# * = called active by the depositor; ? = inconclusive; / = not tested or not shown; [ ] = dose if it differs, or a comment. Potency is read from the fitted curve at half-maximal effect. This is a subset; the hit share may differ from the screen's.
SMILES	Anthrax LT inh	Prx2 Sm inh
Cc1ccc(CCNC(=O)c2coc3nc4ccccc4nc23)cc1	7.1%	>57
O=C(NCc1cccnc1)c1cnc2sccn2c1=O	19.0%	/
CCOc1ccc(-n2cnnn2)cc1S(=O)(=O)NCc1ccccc1	/	>57
Cc1cc(-n2[nH]c(C)c(C)c2=O)nc(-c2ccccc2O)n1	8.4%	>57
CCN(CC)P(=O)(Oc1cccc(C)c1)N(CC)CC	-2.2%	>57
COCCn1c(=O)c(-c2ccccc2)nc2cnc(Nc3cccc(OC)c3)nc21	?	>57
CCCN(CCC)CCNS(=O)(=O)c1ccc2c(c1)oc(=O)n2C	-6.9%	>57
CCC(Oc1ccc2c(c1)C(=O)CC(C)(C)O2)C(=O)NCCN1CCCCCC1 (centres undefined)	4.7%	>57

# Record cards, as listed above. Order of values: Anthrax LT inh, Prx2 Sm inh
# `CCOc1ccc(-n2cnnn2)cc1S(=O)(=O)NCc1ccccc1` is listed with /, >57
# `CCC(Oc1ccc2c(c1)C(=O)CC(C)(C)O2)C(=O)NCCN1CCCCCC1` (centres undefined) is listed with 4.7%, >57

# Continuation.
SMILES	Anthrax LT inh	Prx2 Sm inh
CCCc1nnc(NC(=O)C(C)N2C(=O)C3C4C=CC(C4)C3C2=O)s1 (centres undefined)	-4.6%	>57
CC(C)(C)NC(=O)Cn1c(SCC(=O)N2CCCCCC2)nc2ccccc21	-0.7%	>57
NC(=O)CSc1nnc2sc3ccccc3n12	9.2%	>57
O=c1c(-c2ccc(F)cc2)nc2cnc(Oc3ccccc3)nc2n1C1CC1	-13.5%	>57
COCCn1c(=S)[nH]c2cc(C(=O)N3CCN(c4ccc(F)cc4)CC3)ccc2c1=O	-1.8%	>57
COc1cccc(OCC(=O)Nc2ccc(OC)c(OC)c2)c1	?	>57
Cc1ccc2nc(NC(=O)C3CCCN(S(=O)(=O)c4cccnc4)C3)sc2c1 (centres undefined)	-29.5%	>57
c1ccc2c(c1)[nH]c1nc3nncn3nc12	-3.5%	/
Cc1cc(C(=O)CSc2nnc(Nc3ccccc3)s2)c(C)n1CC1CCCO1 (centres undefined)	?	>57
CN1C(=O)c2ccc(C(=O)NCc3ccccc3)cc2C1=O	8.4%	>57
CCC1C(=O)N=C(SCC(=O)Nc2ccc(C(=O)OC)cc2)NC1=O (centres undefined)	-10.3%	>57
CC(=O)c1cccc(NC2=NCC(C)S2)c1 (centres undefined)	-0.9%	>57
CCOc1cccc(OCCCCn2ccnc2)c1	-11.2%	/
COc1cccc(Nc2ncc3nc(-c4ccc(F)cc4)c(=O)n(CCC#N)c3n2)c1	?	>57
CCOC(=O)c1cn2nc(OP(=S)(OCC)OCC)cc2nc1C	-12.3%	>57
COC(=O)NC(/C(C(=O)OC)=C(\C)NCc1ccccc1)c1cccs1 (centres undefined)	-9.8%[8 µM]	/
CC(=O)c1cccc(NC(=O)Nc2c(C)nn(C)c2C)c1	5.7%	>57
c1coc(Cn2nnnc2CN2CCN(C3CCCC3)CC2)c1	?	>57
COc1ccc(-n2ncc3c(=O)n(CC(=O)OCc4ccccc4)cnc32)cc1	0.6%	>57
Cc1cc(C)n2nc(SCC(=O)Nc3c(C)nn(-c4ccccc4)c3C)nc2n1	-6.9%	>57
CCC1(C)CC(=O)N(c2ccc(C(=O)O)c(O)c2)C1=O (centres undefined)	14.0%	>57
CCCCCc1cc(O)cc(O)c1	?	/
OC(c1ccccc1)c1nc2ccccc2s1 (centres undefined)	-13.6%	/
COc1ccc(S(=O)(=O)N(C)CC(=O)Nc2cccc(C(C)=O)c2)cc1	-12.2%	>57
COc1ccc(NC(=O)COc2nsnc2N2CCCCC2)cc1	-22.1%	>57
CC(=O)N1CC=CC1(C)C(=O)O (centres undefined)	3.7%	/
COc1cccc(C2(O)CCN(C(=O)C3CCC3)CC2)c1	5.5%	>57
COc1ccc(C2C(C#N)=C(N)Oc3cc(O)ccc32)cc1OC (centres undefined)	?	>57
Cc1cccc(OCC(=O)NCCN2CCOCC2)c1	-9.5%	>57
CC(Sc1ncc(C#N)c(N)n1)C(=O)Nc1ccccc1 (centres undefined)	-4.3%	>57
CCCc1cc(C(=O)Nc2ccccc2SC)no1	?	>57
CCOc1ccc(C2=[N+]([O-])C(C)(C)N(O)C2(C)C)cc1	-5.7%	>57

# In another format: results already given.
# Sequence of screens – Anthrax LT inh | Prx2 Sm inh
COc1ccc(NC(=O)COc2nsnc2N2CCCCC2)cc1
 : -22.1% | >57
CC(=O)N1CC=CC1(C)C(=O)O (centres undefined)
 : 3.7% | /
COc1cccc(C2(O)CCN(C(=O)C3CCC3)CC2)c1
 : 5.5% | >57
COc1ccc(C2C(C#N)=C(N)Oc3cc(O)ccc32)cc1OC (centres undefined)
 : ? | >57

# The list goes on.
SMILES	Anthrax LT inh	Prx2 Sm inh
Cc1[nH]c(=O)[nH]c(=O)c1S(=O)(=O)N1CCCC(C(=O)NCc2ccco2)C1 (centres undefined)	3.2%	>57
N[C@@H](Cc1cc(-c2ccc(Cl)cc2Cl)cc(CP(=O)(O)O)c1O)C(=O)O	?	>57
COc1ccc(NC(=O)CSc2nnc(-c3ccccc3)n2N)cc1	-12.2%	>57
CCCCn1nnnc1NCc1cccc(OC)c1OC	-2.5%	>57
CCC(C(=O)Nc1ccccc1OC)n1c(C(=O)OC)cc2ccsc21 (centres undefined)	?	>57
CCn1c(SCC(=O)Nc2c(C)n(C)n(-c3ccccc3)c2=O)nnc1-c1cccc(C)c1	-0.4%	>57
Nc1nc(SCC(=O)N2CCc3ccccc32)[nH]c(=O)c1-c1ccccc1	10.4%	>57
Cc1cccc(Cn2c(=O)n(CCCC(=O)NCc3ccco3)c(=O)c3ccccc32)c1	-5.9%	>57
O=C(NCCN1CCOCC1)c1csc2c1CCCC2	7.6%	>57
Cn1cccc1C(=O)N1CCN(c2cccc(C(F)(F)F)c2)CC1	-17.8%	>57
CC(=O)O[C@]1(C(C)=O)CC[C@H]2[C@@H]3C[C@H](C)C4=CC(=O)CC[C@]4(C)[C@H]3CC[C@@]21C	-5.6%	/
Cc1ccc(-n2c(=O)c3sccc3n(CC(=O)NCc3ccco3)c2=O)cc1	8.3%	>57
CC(C)n1c(C(=O)OCC(=O)NCc2ccc3c(c2)OCO3)cc2sccc21	?	>57
O=C1CCCCCN1C(=O)c1ccc(C(=O)N2CCCCCC2=O)cc1	-7.7%	>57
COc1ccccc1OCc1nc(C#N)c(N2CCC(C(N)=O)CC2)o1	12.4%	>57
COC(=O)c1ccc(Oc2cc(C)nc(NCc3ccccc3)n2)cc1	?	>57
COCCCNC(=O)CC1Oc2ccccc2NC1=O (centres undefined)	?	>57
Cc1ccc(NC(=O)c2cnn(-c3ccccc3)c2NC(=O)c2ccco2)cc1C	-16.9%	>57
COc1ccc(S(=O)(=O)Nc2ccc3oc(C)c(C(=O)O)c3c2)cc1	3.9%	>57
CC(C)=CCC/C(C)=C/CO/N=C1/C[C@@H](O)[C@@H](O)[C@@H]2[C@@H]3C(=O)N(C(C)(C)C)C(=O)[C@H]3CC[C@@H]12	-28.2%[8 µM]	/
COc1cc(C(=O)O)ccc1OCC(=O)N1CCOCC1	14.2%	>57
CS(=O)(=O)Nc1cccc(-c2nc(NCc3cccs3)c3ccccc3n2)c1	?	>57
COCC(=O)N1CCC2(CC1)CCN(c1ccccn1)CC2	16.0%	>57
CC(C)COC(=O)COc1cc(Cl)c(Cl)cc1Cl	-7.0%	/
Cn1c(=O)c2c(nc(SCc3nn[nH]n3)n2Cc2ccccc2F)n(C)c1=O	4.8%	>57
CC(=O)Nc1nc(NC(C)=O)c2[nH]c(CO)nc2n1	7.9%[8 µM]	>57
CCOc1ncccc1C(=O)OCCN1C(=O)c2ccccc2C1=O	-1.8%	/
CN1CCN(Cc2nc3c(c(=O)n(C)c(=O)n3C)n2Cc2cccc3ccccc23)CC1	4.7%	>57
COC(=O)c1ccc(OC)c(CSc2nnc(COc3ccccc3)o2)c1	?	>57
COc1ccc(Cc2noc(-c3ccc(OC)c(OC)c3)n2)cc1OC	-5.8%	>57
O=C(O)c1cccc(NC(=O)c2ccccc2)c1	8.0%	/
COc1cccc2c(=O)n(CC(=O)Nc3cccc(F)c3)ccc12	9.4%	>57
CCN1CCc2nc(SCC(=O)Nc3ccc(OC)cc3)c(C#N)cc2C1	-13.8%	>57
CCCNC(=O)OC[C@H]1O[C@@H](CCO/N=C2/[C@H]3O[C@@H]3[C@@H](O)[C@H]3[C@H]2CCn2c(=O)n(-c4ccccc4)c(=O)n23)C=C[C@@H]1Oc1ccc(OC)cc1	-14.3%[8 µM]	/
CCCCOc1ccc(OC(=O)c2cccnc2)cc1	-7.9%	>57
O=C(O)CSCCc1ccccc1	-1.0%[8 µM]	>57
CCOC(=O)Cn1c(=O)c2c(nc(N3CCCCC3)n2Cc2ccccc2)n(C)c1=O	?	>57
COc1cccc(-n2c(SC3CCOC3=O)nc3ccccc3c2=O)c1 (centres undefined)	?	>57
COc1ccc2noc3c2c1C(=O)c1ccccc1-3	28.1%	/
Nc1ncnc2c1ncn2[C@@H]1CCCO1	9.4%	>57
C[C@@H]1[C@H]2CC[C@@H]3[C@@H]4CC=C5C[C@@H](N(C)C)CC[C@]5(C)[C@@H]4CC[C@@]32CN1C	3.98µM*	>57
NC(=O)c1ccc(NC(=O)CCCc2nc(-c3ccccc3Cl)no2)cc1	-5.0%	>57
CCCCNc1nc(N(C)c2ccccc2)nc(-n2ccnc2)n1	12.6µM*	>57
CCCn1nc2ccccc2c1P(=N)(N1CCOCC1)N1CCOCC1	15.5%	>57
N#Cc1c(-n2cccc2/C=N/O)sc2c1CCCC2	-5.2%	>57
COCC(=O)NCc1nc2ccccc2n1Cc1ccccc1F	6.5%	>57
COc1cccc(-c2nccc(NC3CCNCC3)n2)c1	-4.5%	>57
Cc1ccc(-c2nn(CC(=O)Nc3ccc4c(c3)nc3n4CCOC3)c(=O)c3ccccc23)cc1	1.8%	>57
COc1ccc(N(Cc2cc3cc(OC)ccc3[nH]c2=O)C(=O)C2CCCO2)cc1 (centres undefined)	?	>57
Cc1noc(C)c1C(=O)N1CCC2(CC1)CN(c1cccc(-c3ccccc3)c1)C2	?	>57
O=C1CCC(c2ccccc2)(c2ccccc2)CC1	-3.3%[8 µM]	>57
COc1ccccc1NC(=O)CSc1nnc(Cc2cccn2C)n1-c1ccc(F)cc1	-17.6%	>57
COc1ccc(-c2cc(=O)c3c(O)cc(O)cc3o2)cc1	-4.8%[3.58 µM]	>57
CC12CCC(C(=O)N3CCc4ccccc43)(CC1=O)C2(C)C (centres undefined)	13.4%	>57
CCOc1ccc(Nc2nc(Cc3nnc(SCC(N)=O)o3)cs2)cc1	?	>57
CO[C@H]1COC(=O)C/C=C\[C@H](C)[C@@H](OC)COC(=O)[C@@H](C)COC(=O)C/C=C\[C@@H]1C	-10.4%[8 µM]	/

# Next structures follow.
SMILES	Anthrax LT inh	Prx2 Sm inh
CCOC(=O)C1=C(C)NC(SCC(=O)O)=NC1c1ccccc1 (centres undefined)	?	>57
COc1cc(C(C)=O)ccc1OCC(O)CN1CCN(S(=O)(=O)c2ccccc2)CC1 (centres undefined)	11.4%	>57
Cc1c(Nc2ncnc3nc[nH]c23)c(=O)n(-c2ccccc2)n1C	?	>57
O=C(O)c1ccccc1NS(=O)(=O)c1ccccc1C(F)(F)F	-14.8%	>57
CN(C(=O)c1cccc(C#N)c1)c1nnc(C2CCOC2)s1 (centres undefined)	-0.1%	>57
CCCn1nnc(NC(=O)c2ccccc2Br)n1	0.6%	>57
CCN(CC)CC(C)CNC(=O)CC(C(=O)N1CCc2ccccc21)n1ccnc1 (centres undefined)	6.8%	>57
Clc1ccc(Oc2cccc(/C=N/n3cnnc3)c2)cc1	-23.1%	>57
O=c1cnc2cnc(Oc3cccc(Cl)c3)nc2n1CCc1ccccc1	2.2%	>57
CCc1ccc(C2CC(c3ccc(C)cc3)n3nc(N)nc3N2)cc1 (centres undefined)	4.3%	>57
CCOC(=O)CC1=NS(=O)(=O)c2ccccc2N1	-4.3%	>57
N#Cc1c(N)nc(SCC(=O)OCc2ccccc2)c(C#N)c1-c1ccco1	/	>57
CCOC(=O)C(C(=O)OCC)=C1OC(=O)c2ccccc21	-16.9%	/
C/C(=C1\SC(N2CCOCC2)=NC1=O)c1ccccc1	4.7%	/
O=C(c1cc2c(s1)CCCCC2)N1CCN(c2ncccn2)CC1	-11.6%	>57
COc1ccccc1C1/C(=C(/O)c2ccc(Cl)cc2)C(=O)C(=O)N1CCN1CCOCC1 (centres undefined)	-11.2%	>57
Cc1cc(C(=O)Nc2ccccn2)no1	-10.2%	>57
COc1ccc(C(=O)COC(=O)CCn2nnc(-c3cccs3)n2)cc1	4.2%	>57
Cc1c(NC(=O)c2cc(-c3ccc4c(c3)OCO4)on2)c(=O)n(-c2ccccc2)n1C	-2.8%	>57
COc1ccc(Cc2nnc(NS(=O)(=O)Cc3ccccc3)s2)cc1	6.4%	>57
O=S(=O)(c1ccccc1)N1CN2CCN(C2)C1	0.6%	>57

# Compound activity: PubChem, National Center for Advancing Translational Sciences (NCATS)
